Screens deposited in PubChem BioAssay by National Center for Advancing Translational Sciences (NCATS).
Bst PK mod: modulators of Bacillus stearothermophilus pyruvate kinase. actives 1.2% (n = 51,000). Potency, µM. AID 361. partly purified Bacillus stearothermophilus pyruvate kinase, luminescence ATP production; ribose 5-phosphate activator present at AC10; in the data active means potency below about 11 µM; inconclusive means mostly about 12 µM to 25 µM; inactive means weaker than that;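 the screen sought inhibitors and activators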;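 also: potency is read from the fitted curve at half-maximal effect; scaled between full activation by ribose 5 phosphate and full inhibition by luteolin; about four in five hits inhibit and the cells do not say which; series up to 57 µM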
TsaE inh: inhibitors of E. coli YjeE (TsaE); AID 605; purified YjeE, fluorescence polarisation of a bound ADP probe; P0AF67; actives 0.05% (n = 71,000); Potency, µM; active = well fitted falling curve; inconclusive = weaker or top-dose-only fall, or a rising curve; inactive = flat or poorly fitted curve;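 also: top concentration of the series not given in the record; excess ADP was the control for the full effect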
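Purified YjeE (10 uM) with BODIPY Texas Red-labeled ADP probe (2 uM); compounds pin-transferred, 15 min at room temperature. Binding inhibition read as decreased fluorescence polarization; ADP titration as control.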
Numbers without * were called inactive; i = inactive; ? = inconclusive; · = not tested or not shown. An excerpt (hit frequency here may not be typical).

TsaE inh	Bst PK mod	Structure
i	·	OC[C@H]1O[C@@H]2O[C@H]3[C@H](O)[C@@H](O)[C@@H](O[C@H]4[C@H](O)[C@@H](O)[C@@H](O[C@H]5[C@H](O)[C@@H](O)[C@@H](O[C@H]6[C@H](O)[C@@H](O)[C@@H](O[C@H]7[C@H](O)[C@@H](O)[C@@H](O[C@H]8[C@H](O)[C@@H](O)[C@@H](O[C@H]1[C@H](O)[C@H]2O)O[C@@H]8CO)O[C@@H]7CO)O[C@@H]6CO)O[C@@H]5CO)O[C@@H]4CO)O[C@@H]3CO
i	>57	Cc1nc2cc(N3CCN(C)CC3)c(NC(=O)Cc3ccccc3)cc2c(=O)n1Cc1ccccc1
i	>57	CC(C)Cn1c(SCC(=O)NC(=O)NC2CCCC2)nc2ccccc21
·	i	COc1cccc(-c2nnc3sc(-c4ccccc4)nn23)c1
i	>57	CCn1c(CCC(=O)Nc2nc3c(s2)CCCC3)nc2cc(S(=O)(=O)N(C)C)ccc21
i	>57	CC(=O)N1C(=O)C2(C(C#N)=C(N)Oc3n[nH]c(-c4ccccn4)c32)c2ccccc21 (stereo not given)
i	>57	O=C(NCc1ccco1)c1ccc(CS(=O)(=O)c2cccc(C(F)(F)F)c2)o1
i	>57	CCC(C(=O)NC1CCCC1)N(C(=O)Cn1nnc(-c2ccc(C)o2)n1)C(C)(C)C (stereo not given)
i	>57	CCOc1ccccc1N(CC(=O)NC1CCCC1)C(=O)CCC(=O)Nc1cc(C)on1
i	>57	O=C(Nc1nc(SCc2ccc(F)cc2)ns1)c1ccco1
i	>57	COCCn1nnnc1C(c1ccc(C)cc1)N1CCN(Cc2ccc3c(c2)OCO3)CC1 (stereo not given)
i	>57	CCCCC(=O)N(c1ccc(OC)cc1)C1C=CS(=O)(=O)C1 (stereo not given)
i	>57	COc1cc(S(=O)(=O)N2CCOCC2)ccc1NC(=O)c1cc2c(s1)CCC2
i	?	Cc1cc(Cl)cc(Br)c1OCCCCn1cncn1
i	>57	CC1CCCC(NC(=O)CSc2nccn2C)C1C (stereo not given)
i	>57	CCOC(=O)CSc1nnc(CNC(=O)c2cccs2)n1CCc1ccccc1

Brought forward from above: 7 entries, followed by the next part.
TsaE inh	Bst PK mod	Structure
i	>57	O=C(Nc1nc(SCc2ccc(F)cc2)ns1)c1ccco1
i	>57	COCCn1nnnc1C(c1ccc(C)cc1)N1CCN(Cc2ccc3c(c2)OCO3)CC1 (stereo not given)
i	>57	CCCCC(=O)N(c1ccc(OC)cc1)C1C=CS(=O)(=O)C1 (stereo not given)
i	>57	COc1cc(S(=O)(=O)N2CCOCC2)ccc1NC(=O)c1cc2c(s1)CCC2
i	?	Cc1cc(Cl)cc(Br)c1OCCCCn1cncn1
i	>57	CC1CCCC(NC(=O)CSc2nccn2C)C1C (stereo not given)
i	>57	CCOC(=O)CSc1nnc(CNC(=O)c2cccs2)n1CCc1ccccc1
i	·	Cc1[nH]c(=O)[nH]c(=O)c1S(=O)(=O)N1CCOCC1
i	7.7*	N#CC(=C1CCCC1)c1nc(-c2ccccc2O)cs1
i	>57	Cc1cc(Cl)c2c(c1)[C@]1(C(=O)N2)[C@@H]2C(=O)N(Cc3ccccc3)C(=O)[C@@H]2[C@@H]2CCCN21
i	>57	Cc1cccc(NC(=O)CCN2C(=O)C3C4C=CC(C4)C3C2=O)n1 (stereo not given)
i	·	CCCOC(=O)c1ccc(OCC(O)Cn2c(C)nc3ccccc32)cc1 (stereo not given)
i	>57	CCOC(=O)Cn1c(C)c(Br)c(=O)c2cccc(C)c21
i	>57	CC1CN(c2nc3ccccc3nc2C(C#N)C(=O)NCc2ccc3c(c2)OCO3)CC(C)O1 (stereo not given)
i	·	CC(=O)Nc1nc2ncc(C=O)nc2c(=O)[nH]1
i	>57	O=C(NC12CC3CC(CC(C3)C1)C2)N1CCN(c2ccccn2)CC1
i	>57	COC(=O)Nc1ccc(C)c(NC(=O)OC)c1
i	>57	COc1ccc(C2=NO[C@@H]3C(=O)N(c4c(C)cccc4C)C(=O)[C@H]23)cc1OC
i	·	COc1ccc(S(=O)(=O)Cc2ccc(C(=O)NC(C)C)o2)cc1
i	>57	COc1ccc(OC)c(-c2[nH]nc3c2C(c2ccco2)C(C#N)=C(N)O3)c1 (stereo not given)
·	>26	Cc1ccc(C(=O)NCCCNCCCNC(=O)c2ccc(C)nc2)cn1
i	·	O=C(NCCc1ccc(Cl)cc1)c1cnc2n(c1=O)CCS2
i	>57	Cc1nn2c(-n3ccnc3)c3c(nc2c1-c1ccccc1)CCC3
i	>57	COc1ccc(NC(=O)CNS(=O)(=O)c2cccc3nonc23)c(OC)c1
i	·	CCC(C)Sc1nc2c(c(=O)[nH]c(=O)n2C)n1Cc1ccccc1Cl (stereo not given)
i	>57	Cc1ccc(N2CCCn3c2nc2c3c(=O)n(CC(=O)OCc3ccccc3)c(=O)n2C)cc1C
i	>57	O=C(CSc1ccc2nnc(-c3ccccc3)n2n1)NCC1CCCO1 (stereo not given)
i	>57	CC(=O)c1cccc(OCC(=O)c2cc(C)n(-c3cc(C)on3)c2C)c1
i	·	O=C1c2ccccc2NC(c2ccccc2)N1Cc1ccco1 (stereo not given)
i	·	Nc1ccc(SC(F)(F)F)cc1C(=O)c1ccccc1
·	>26	COc1ccccc1NC(=O)Nc1nnc(C(C)C)s1
i	>57	CCOC(=O)N1CCN(S(=O)(=O)c2ccc(OCC(=O)OC)cc2)CC1
i	>57	Cn1c(=O)c2c(nc(CN3CCN(c4ccc(F)cc4)CC3)n2Cc2ccccc2F)n(C)c1=O
i	·	COc1ccc(CNc2oc(-c3ccccc3)nc2C#N)cc1
i	·	Cn1c(=O)c2[nH]c(CCC(=O)O)nc2n(C)c1=O
i	>57	COc1cc2[nH]c(=O)n(CCC(=O)NC3CCCC3)c(=O)c2cc1OC
i	>57	CS(=O)(=O)c1ccc2nc(NC(=O)CCC(=O)c3cccs3)sc2c1
i	·	C[C@H]1[C@H](C)OC(=O)C[C@H](O)C[C@H](O)C[C@H](O)CC[C@H](O)[C@H](O)CC(=O)C[C@H](O)[C@H](C(=O)O)[C@H](O)C[C@H](O[C@@H]2O[C@@H](C)[C@H](O)[C@@H](N)[C@@H]2O)C=CC=CC=CC=CCCC=CC=C[C@@](C)(O)[C@H]1O
i	>57	Cc1c(Cc2ccccc2)c(=O)oc2c(CN(C)C)c(O)c(Cl)cc12
i	·	Cc1noc(C)c1-c1nc(NCc2cccs2)c2ccccc2n1
i	>57	CC(=O)NC1(c2ccccc2)CCN(Cc2nnnn2C(C)(C)C)CC1
i	>57	COc1ccc(-c2nnnn2C)cc1S(=O)(=O)NCc1ccccc1
i	>57	COC(=O)c1[nH]c2ccccc2c1NS(=O)(=O)c1ccc(F)c(C)c1
i	>57	CNS(=O)(=O)c1cccc(C(=O)OCC(=O)Nc2ccccc2OC(F)F)c1
i	·	O=C1CC(NCc2ccncc2)C(=O)N1c1ccccc1 (stereo not given)
i	·	O=C(Cn1c(=O)n(-c2ccccc2)c(=O)n1CC(=O)N1CCCCC1)N1CCCCC1
i	·	O=C(O)c1ccccc1NCn1c(=S)sc2ccccc21
i	>57	O=C(c1cccc(S(=O)(=O)N2CCCC2)c1)N1CCN(c2ccccc2)CC1
i	>57	O=C(O)CC1SC(=Nc2ccccc2)N(c2ccccc2)C1=O (stereo not given)
i	>57	CCSc1nnc(-c2ccccc2N)c(=O)[nH]1
i	>57	COc1ccc(OC)c(S(=O)(=O)N2CCC(C(=O)Nc3cccc(C(F)(F)F)c3)CC2)c1
i	>57	O=C(NCCCn1ccnc1)c1ccc(Cl)c(S(=O)(=O)N2CCOCC2)c1
i	·	COc1ccccc1CNC(=O)C1CCCN(S(=O)(=O)c2cccc3cccnc23)C1 (stereo not given)
i	·	CCOC(=O)Nc1ccc2c(c1)N(C(=O)OCCN(C)C)c1ccccc1CC2
i	>57	Cc1ccc(S(=O)(=O)N2CCN(C(=O)CN3CCOCC3)C2c2ccccc2)cc1 (stereo not given)
i	·	CCOC(=O)C1CCCN(C(=O)C2c3ccccc3Oc3ccccc32)C1 (stereo not given)
i	>11	Fc1ccc(-c2nnn(Cc3nc4ccccc4s3)n2)cc1
i	?	COc1ccc(-c2cc(=O)oc3c(C)c(OCc4nn[nH]n4)ccc23)cc1
i	>57	Cc1nnc(SCC(=O)Nc2ccccc2)n1CCc1ccccc1
i	>57	O=C(CSc1nc2ccsc2c(=O)n1Cc1ccccc1)NCc1ccco1
i	·	CCCc1cc(C(=O)Nc2cc(OC)c(Cl)cc2OC)no1
i	>57	Clc1ccc(CSc2nnc([C@@H]3CCCN3)o2)cc1
i	>57	CCCCn1nnc(NC(=O)CC23CC4CC(CC(C4)C2)C3)n1

Going on with the list:
TsaE inh	Bst PK mod	Structure
i	>57	COc1cc2c(=O)n(Cc3ccccc3)c(=O)n(CC(=O)NCC3CCCO3)c2cc1OC (stereo not given)
i	>57	N#Cc1c(F)cccc1N1CCOCC1
i	>57	CCOC(=O)C1=C(C)Nc2ncnn2C1c1ccc2c(c1)OCO2 (stereo not given)
79µM*	·	C=CC1=C(C)C2=NC1=CC1=NC(=CC3=NC(=CC4=NC(=C2)C(C)=C4CCC(=O)O)C(CCC(=O)O)=C3C)C(C=C)=C1C.[Zn]
i	>57	CC1CCN(S(=O)(=O)c2cc(Cl)ccc2Br)CC1
i	>57	COCCn1c(SCC(=O)N2CCCCC2)nc2ccccc2c1=O
i	·	COC(=O)c1c(-c2ccc(F)cc2)csc1NC(=O)c1ccco1
i	>57	CCn1c(Cn2nnc(-c3ccccc3)n2)nnc1SCc1ccc(Cl)c(Cl)c1
i	>57	Cc1ccc(OCCSc2nnc(NC(=O)c3ccco3)s2)cc1
i	>57	COc1ccccc1-c1cc(C(F)(F)F)nc(S(=O)(=O)CCCC(=O)N2CCCCC2C)n1 (stereo not given)
i	>57	Oc1cc2ccccc2cc1-c1n[nH]c(=S)o1
i	·	CCN(CC)CCN1c2ccccc2Sc2ccc3ccccc3c21
i	·	O=C(Cn1cc(C(=O)c2cccs2)c2ccccc21)NCc1ccc2c(c1)OCO2
i	>57	CCN(Cc1ccccc1)S(=O)(=O)c1nc2nc(C)c(C)c(C)n2n1
i	>57	COc1ccc(NC(=O)c2c(-c3ccccc3Cl)noc2C)c(OC)c1
i	·	CCOC(=O)N1CCN(C(=O)c2cc3c(=O)n(C)c4ccccc4c3n2C)CC1
·	>11	Cc1cc2c(c(=O)o1)C(Cc1ccccc1)C(C#N)=C(N)O2 (stereo not given)
i	>57	COc1ccc(NC(=O)c2ccco2)cc1NC(=O)c1c(F)c(F)c(OC)c(F)c1F
i	·	O=C1c2ccccc2CC[C@H]1CNCCc1ccc(O)cc1
i	·	Cc1nn(C(C)C(=O)O)c(=O)c2c1sc1ccccc12 (stereo not given)
i	>57	CN1C(=O)N(CN2CCCCC2)C2C1N(C)C(=O)N2CN1CCCCC1 (stereo not given)
i	·	CCOC(=O)c1c(C)[nH]c2ccc3c(c12)CN1CCc2cc(OC)ccc2[C@@H]1O3
i	·	N#Cc1cccc(-c2ccc3ncnc(NCc4ccccc4)c3c2)c1
i	>57	CCOc1ccccc1NC1=NCC(=O)N1Cc1ccc(F)cc1
i	>57	CCC(=O)n1nc(NCc2ccccc2OC)nc1NCc1ccccc1OC
i	10*	O=C(Nc1nnc(CCN2CCOCC2)s1)C1CCCCC1
i	·	CCC/C=C(\CCC)C(NC(=O)c1ccc(C(F)(F)F)cc1)c1ccc(C(F)(F)F)cc1 (stereo not given)
i	>57	Cc1ccc2c(c1)N(CC(=O)N1CCCCC1c1cccnc1)C(=O)CO2 (stereo not given)
i	>57	Cc1cc(NC(=O)COC(=O)c2cc3c(s2)CCC(C)C3)no1 (stereo not given)
i	i	O=C(NCCCO)c1ccc2[nH]c3ccccc3c2c1
i	·	Cc1ccc2nc(N/N=C\c3cccc(C)n3)cc(C)c2c1
i	i	CSc1ccccc1NS(=O)(=O)c1ccc2c(c1)OCCO2
i	·	COC(=O)c1c(NC(=O)C2CC2)sc2c1CCCC2
i	>57	COc1cc2c(=O)n(Cc3ccco3)c(=O)n(CC(=O)c3ccc(Br)cc3)c2cc1OC
i	>57	CN=C1SC(CC(=O)Nc2cc(Cl)ccc2Cl)C(=O)N1C (stereo not given)
i	>57	O=C(c1ccccc1NS(=O)(=O)c1ccc(Br)s1)N1CCCC1
i	·	CC(C)[C@@H]1[C@H]2CC[C@H](C2)[C@H]1N
i	>57	COc1ccc(CC(NC(C)=O)C(=O)NC2CCN(S(=O)(=O)c3ccccc3)CC2)cc1OC (stereo not given)
·	>26	CCOc1ccc(C2C(C(=O)c3ccc(C)o3)=C(O)C(=O)N2CCCN(CC)CC)cc1 (stereo not given)
i	·	CCOc1ccc(N(CC(=O)NC2CCCCCC2)S(=O)(=O)c2c(C)noc2C)cc1
·	>26	Cc1nnc(SCC(=O)N2CCC(C(N)=O)CC2)s1
i	>57	O=C(COC(=O)CCOc1ccccc1)Nc1ccc(Cl)cn1
i	>57	COCCOc1ccc(C(F)(F)F)cc1Nc1nc2ccccc2o1
i	>57	COc1cccc(/C=N/n2cncn2)c1OCC#N
i	>57	CC(C)[C@H](NC(=O)NC1CCCC1)C(=O)O
i	>57	CCOc1cc(C(=O)N2CCN(c3ccc(C(C)=O)cc3)CC2)cc(OCC)c1OCC
i	>57	CC(C)COc1cccc(C(=O)Nc2ccc(S(=O)(=O)N3CCOCC3)cc2)c1
